UUG fidelity – alters start codon recognition fidelity in yeast; actives 0.13% (n = 350,000); S. cerevisiae UUG-firefly luciferase reporter, luminescence/redox ratio; AID 602363; activity score, % at 18.7 µM;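 active means replicate mean at a twofold rise or more, about +100% in these data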;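 further: firefly luciferase made from a UUG start codon reports start codon fidelity; reporter light over untreated wells divided by growth signal over untreated wells; some hits fall short of that in this replicate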
PABP FP inh – PABP-poly(A) binding inhibition | PABP-poly(A) RNA binding, fluorescence polarization | inhibition, % at 35 µM | actives 1% (n = 290,000) | AID 2014;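 active means 50% or more with normal probe brightness, or confirmed in later tests; inconclusive means above 50% with abnormal brightness, or retests that disagree; inactive means below 50% or failed in later tests; about a fifth of its hits are not listed in these tables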;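 further: calls also rest on retests at 20 µM and on dose response follow-up; controls were probe without protein and protein plus probe with vehicle; some compounds called inactive have numbers as strong as hits; many hits fall short of the cut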
Target sequence (P11940 whole entry, looked up): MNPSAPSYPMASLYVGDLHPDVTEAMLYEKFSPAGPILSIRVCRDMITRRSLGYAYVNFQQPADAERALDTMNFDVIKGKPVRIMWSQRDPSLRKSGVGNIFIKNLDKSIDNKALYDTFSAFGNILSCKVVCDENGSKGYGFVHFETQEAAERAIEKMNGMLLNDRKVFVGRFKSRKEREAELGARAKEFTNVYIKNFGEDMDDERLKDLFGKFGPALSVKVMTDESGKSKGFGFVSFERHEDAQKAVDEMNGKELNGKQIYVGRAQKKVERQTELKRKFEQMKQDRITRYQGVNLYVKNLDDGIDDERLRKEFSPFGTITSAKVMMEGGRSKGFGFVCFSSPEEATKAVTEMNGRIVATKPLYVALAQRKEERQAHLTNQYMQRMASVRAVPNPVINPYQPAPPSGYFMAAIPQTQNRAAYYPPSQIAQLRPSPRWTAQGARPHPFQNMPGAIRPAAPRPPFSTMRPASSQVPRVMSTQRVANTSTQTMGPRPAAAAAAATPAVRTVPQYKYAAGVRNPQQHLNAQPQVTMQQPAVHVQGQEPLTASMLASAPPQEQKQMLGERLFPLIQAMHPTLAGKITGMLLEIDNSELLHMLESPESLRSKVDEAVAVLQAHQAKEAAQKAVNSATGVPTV
Rce1 inh – yeast Ras-converting enzyme inhibition; Q03530; yeast membranes, quenched prenylated peptide cleavage fluorescence; calls only; actives 0.27% (n = 290,000);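 active means fall in fluorescence gain of 50% or more versus controls, with final raw signal at or below 3038400; inconclusive means same 50% fall but final raw signal above 3038400; inactive means fall in fluorescence gain under 50%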;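 further: plate controls were neutral control wells for no effect and wells lacking membranes for full effect; tested at 10 µM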
Target sequence (Q03530 whole entry, looked up): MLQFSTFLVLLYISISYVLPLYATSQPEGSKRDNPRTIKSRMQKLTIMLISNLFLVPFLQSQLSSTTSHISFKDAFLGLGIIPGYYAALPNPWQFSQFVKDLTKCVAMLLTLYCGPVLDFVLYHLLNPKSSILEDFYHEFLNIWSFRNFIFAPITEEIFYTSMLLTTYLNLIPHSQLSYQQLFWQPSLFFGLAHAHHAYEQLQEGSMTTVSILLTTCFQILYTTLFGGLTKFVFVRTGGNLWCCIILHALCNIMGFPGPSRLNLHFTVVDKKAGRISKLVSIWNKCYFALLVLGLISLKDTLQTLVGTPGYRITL
MT1-MMP act inh – blocks activation of human MT1-MMP; P50281; HT1080 RFP-PRO-GFP cells, GFP/RFP ratio fluorescence, overnight; percent of plate control window, DMSO zero; GFP/RFP ratio change, % at 20 µM; actives 0.061% (n = 360,000); AID 651647;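 active means GFP/RFP ratio change of at least 30% with cell ATP level not reduced by more than half and red fluorescence within 50% of control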; further: strong numbers were not always called active
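Assay system – RFP-PRO-GFP reporter HT1080 cells · Compound dosing – single dose of 20 µM compound, 1% DMSO final · Incubation – overnight compound exposure at 37 °C · Measure – GFP/RFP fluorescence ratio · Benchmarks – DMSO wells and RFP-L50D-GFP cells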
eIF4H FP inh – inhibitors of RNA binding by human eIF4H | Q15056 | eIF4H fluorescence polarization binding assay | inhibition, % at 35 µM | actives 0.94% (n = 290,000) | AID 2012;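 active means 50% or more with normal probe brightness, or confirmed in later tests; inconclusive means above 50% with abnormal brightness, or retests that disagree; inactive means below 50% or failed in later tests; about a fifth of its hits are not listed in these tables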;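 further: calls also rest on retests at 20 µM and on dose response follow-up; 0% = protein and probe with vehicle and 100% = probe without protein; strong numbers were not always called active; many hits fall short of the cut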
CSC inhib – cancer stem cell inhibition; cancer stem cell-like cells viability, luminescence; inhibition, % at 7.5 µM; actives 1.1% (n = 300,000);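 active means mean at 75% or more and at least half the replicates too; inconclusive means mean and replicates disagree; tested in HMLE shEcad cells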;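 further: 0% = median of negative and 100% = median of positive control wells; the first replicate is given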
Env fusion inh – HIV envelope-mediated fusion inhibition | HeLa-JRFL Env/CEM21 cell fusion, luciferase | inhibition, % at 12.3 µM | actives 1.1% (n = 360,000);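 active means mean replicate inhibition score of at least 50 and every replicate individually at or above 50; inconclusive means only one of the two criteria met; inactive means mean below 50 and not all replicates reaching 50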;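 further: 0% = plate neutral controls and 100% = maraviroc near 300 nM; one replicate is shown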
eIF4H FP inh retest – also measured in eIF4H FP inh; calls as there; inhibition, %; compound at 20 µM; confirmation average;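 mean of two retest wells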
PABP FP inh retest – recorded beside PABP FP inh, whose call it bears; inhibition, %; compound at 20 µM; confirmation repeats;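 mean of two retest wells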
MT1-MMP act inh RFP – second read-out of MT1-MMP act inh, no call of its own (marks repeat the call); RFP signal change, %; measured here: RFP expression control read;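 0 = vehicle wells; hits needed this value within 50% of zero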
The depositor's hits bear a star; i = inactive; ? = inconclusive; nt = not tested or not shown; & = joins results of further samples; [ ] = another dose, or the depositor's remark.

SMILES	UUG fidelity	PABP FP inh	Rce1 inh	MT1-MMP act inh	MT1-MMP act inh RFP	eIF4H FP inh	CSC inhib	Env fusion inh	others
CCOc1ccc(S(=O)(=O)Nc2ccc(S(=O)(=O)Nc3cc(OC)ccc3OC)cc2)cc1	-9	14	i	2	4	15	9	-37
O=C(C(c1ccccc1)c1ccccc1)N1CCOCC1	-11	-9	i	4	2	-4	-2	nt
C=CCOn1c(=O)c(-c2ccc(Cl)cc2)[n+]([O-])c2ccccc21	-1	14	i	2	3	1	nt	2
COc1cccc(-c2nc(CS(=O)CC(=O)NCCc3ccc(C)cc3)c(C)o2)c1 (stereo unspecified)	-7	5	i	0	1	-16	-1	-10
CC(NC(=O)/C(=C\c1cccc([N+](=O)[O-])c1)NC(=O)c1ccco1)C(=O)O (stereo unspecified)	-12	-4	i	2	-1	-5	nt	nt
COc1ccc(NC(=S)NN2C(C)CCCC2C)cc1 (stereo unspecified)	-18	7	i	-2	1	-1	-3	nt
N#Cc1ccc(Cn2c(=O)oc3ccccc32)cc1	-9	3	i	-1	0	-6	-16	26
CCCCCCN(C(=O)CCCCCN1C(=O)NC(c2ccc(-c3ccccc3)cc2)C(C(=O)OCc2ccccc2)=C1C)C(C)C(=O)NCCCC (stereo unspecified)	nt	-11	i	nt	nt	-7	3	?
Cc1nc2ccccc2c(=O)n1CCCN1CCOCC1	nt	-5	i	-1	6	9	-26	-7
CC1=CS/C(=C(/C#N)C(=O)N2CCCCC2)N1c1ccccc1	-19	12	i	4	4	0	-2	nt
CN(C(=O)c1cccc(NC(=O)Cc2ccc(NC(=O)C3CCCN(C(=O)C4CCCCC4)C3)cc2)c1)C1CC1 (stereo unspecified)	-1	nt	nt	4	1	nt	nt	6
C#CCNC(=O)C1=C[C@H](c2ccc3c(c2)OCO3)[C@@H](CCCO)[C@H](OCC)O1	12&1	4	i	-2	0	-2	-15	-1[16.7 µM]
O=C(NCCCCc1ccccc1)Nc1cccc(F)c1	-2	-5	i	1	-3	-7	6	-40
COc1ccc(/C(O)=C2/C(=O)C(=O)N(CCN(C)C)C2c2ccc(C)cc2)cc1Cl (stereo unspecified)	-2	0	i	2	1	-5	-2	-8
Cc1ccc(NC(=O)Nc2ccc3c(c2)CCC3)cc1	-20	-8	i	-1	3	-15	18	-40
O=C(NC1(C(F)(F)F)C(=O)Nc2c1c(=O)[nH]c(=O)n2-c1ccccc1)c1ccncc1 (stereo unspecified)	-14	nt	i	-1	4	nt	5	-13
O=C(Cn1cc(C(=O)COc2ccccc2)c2ccccc21)NCc1ccco1	-6	55	i	-2	-7	36*	-13	nt	eIF4H FP inh retest=56*;PABP FP inh retest=26
COc1ccc(N=C(C)C2=C(O)c3ccccc3C2=O)cc1	-54	-7	i	1	1	-9	-1	-67
C[C@H]1CN([C@@H](C)CO)S(=O)(=O)c2ccc(C#Cc3cccnc3)cc2O[C@@H]1CN(C)C(=O)Nc1ccc2c(c1)OCO2	66&63&-8	nt	nt	-5	-2	nt	nt	-35
O=C(C[n+]1ccn(CCCNP2(=O)C=C(c3ccccc3)OC(c3ccccc3)=C2)c1)c1cccs1	nt	-6	i	0	1	9	-5	0
N#CC1=C2SCN(Cc3ccco3)CN2C(=O)CC1c1c(F)cccc1Cl (stereo unspecified)	0	20	i	0	5	5	4	0
Cc1ccc(S(=O)(=O)NCC(=O)N(CC(=O)NCc2ccco2)C2CCCC2)cc1	-6	7	i	0	3	-7	nt	-4
O=C(Nc1ccc(Cl)cn1)c1cc2c(s1)-c1ccccc1OC2	-10	-4	i	0	-7	-2	21	-31
O=C(CCSCCc1ccccn1)Nc1c(F)cc(F)cc1Br	-23	107	i	1	-1	-16	-6	20	eIF4H FP inh retest=1;PABP FP inh retest=2
CC(C)(C)NC(=O)C(Cc1ccccc1)NS(=O)(=O)c1ccc2c(c1)CCC(=O)N2 (stereo unspecified)	6	-16	i	-2	0	-8	-1	8

Next compounds follow:
SMILES	UUG fidelity	PABP FP inh	Rce1 inh	MT1-MMP act inh	MT1-MMP act inh RFP	eIF4H FP inh	CSC inhib	Env fusion inh	others
Cc1cc(C)nc(SCc2nc3nc(C)cc(C)n3c2Br)n1	-14	9	i	-2	0	5	-16	nt
OCCNCCCCOc1ccc(F)cc1	-7	3	i	9	4	9	10	8
CS(=O)(=O)N1CCc2cc(C(=O)O)ccc21	-8	-4	i	1	6	-7	9	nt
O=C(Nc1ccc2c(c1)OCO2)C1CCN(S(=O)(=O)c2cccs2)CC1	-8	6	i	7	0	29	12	-31
COc1ccc(C(=O)Cn2c(=O)oc3ccc(C)cc32)cc1	-13	-2	i	1	-11	8	-5	12
CS(=O)(=O)c1ccc(N2CCN(c3ccccn3)CC2)c([N+](=O)[O-])c1	65	6	i	6	1	4	-6	-3
O=C(CSc1cn(Cc2cccc(F)c2)c2ccccc12)NCc1ccc(F)cc1	-4	2	i	1	-1	9	0	-19
COc1cc(/C=N/NC(=O)c2ccc(CSc3nc4ccccc4[nH]3)cc2)ccc1O	nt	-3	i	1	-4	0	-1	9
C/C(=N\NC(=O)c1ccc(=O)[nH]n1)c1cccnc1	nt	-8	i	-8	2	-8	3	-12
COc1ccc(S(=O)(=O)N2CCC3(CC2)OCCN3S(=O)(=O)c2cccs2)cc1OC	nt	nt	i	-2	1	nt	11	nt
COc1ccccc1Oc1ccc(S(=O)(=O)N2CCCC2)cc1	nt	-10	i	0	0	-11	nt	nt
COC(=O)c1sccc1NC(=O)Nc1ccccc1Cl	12	9	i	2	3	4	5	nt
COCCSc1nc(N)c(NC(=O)c2ccco2)c(=O)[nH]1	-11	-4	i	2	2	2	-7	nt
O=S(=O)(/N=C(/Nc1cccc2ccccc12)c1ccccc1)c1ccc(F)cc1	-10	nt	i	-3	-3	nt	-4	14
Cn1ccsc1=NC(=O)c1ccc(S(C)(=O)=O)cc1	-6	0	i	2	-2	-3	-2	-8
CC(=O)Nc1ccc(NC(=O)C(C)OC(=O)CCCc2c[nH]c3ccccc23)cc1 (stereo unspecified)	-2	nt	i	1	-4	nt	-1	-13
CN(C)CCNc1nc(-c2ccco2)c2c(c1C#N)CC(C)(C)OC2	13	-4	i	-6	-3	5	-6	-19
O=[N+]([O-])c1cccc(/C=N/n2cnnc2)c1O	13	10	i	5	4	3	-4	nt
COc1ccc2c(c1)cc1c(=O)n(CC(=O)NC(C)CCc3ccccc3)nc(C)n12 (stereo unspecified)	-11	-3	i	1	1	2	3	6
Cc1c(NCc2cc(Cl)cc(Cl)c2O)c(=O)n(-c2ccccc2)n1C	-19	18	i	-16	-11	5	23	-21
O=[N+]([O-])c1ccc(OC/C=C2\Oc3ccc([N+](=O)[O-])cc3C2N2CCOCC2)cc1 (stereo unspecified)	-19	6	i	-2	-5	-8	2	nt
COc1ccc(C(C(=O)NC2CCCC2)N2CCc3ccccc32)cc1 (stereo unspecified)	-15	-12	i	-2	-6	-8	9	-99
CCCCNS(=O)(=O)c1ccc2nc(SCC(N)=O)[nH]c2c1	-16	10	i	3	2	-11	6	16
CCOCCCNC(=O)C1(O)c2cc(Br)ccc2NC(=O)N1c1cccc(OC)c1 (stereo unspecified)	8	-1	i	5	6	-1	-10	-15
CSc1ccccc1C(=O)Nc1cc2c(cc1C(=O)O)OCCCO2	-2	-7	i	1	3	-3	nt	12

(listing goes on)
SMILES	UUG fidelity	PABP FP inh	Rce1 inh	MT1-MMP act inh	MT1-MMP act inh RFP	eIF4H FP inh	CSC inhib	Env fusion inh	others
O=C(COc1ccccc1)N(Cc1cccc(F)c1)C1CCS(=O)(=O)C1 (stereo unspecified)	13	6	i	-2	2	-2	-17	1
CCc1ccc(CCC(=O)Nc2ccc(C(C)=O)cc2)o1	-17	-5	i	4	0	-7	0	-5
COc1ccc(CNC(=O)CCn2nc(C)c3c(C)n(-c4ccccc4)nc3c2=O)c(OC)c1	17	-1	i	-4	2	-1	-7	-2
CN(C)c1ccc(C(=O)NNC(=O)Nc2ccccc2)cc1	nt	5	i	-4	-1	0	-10	6
COc1ccccc1CN1CC(C(=O)NC2(c3ccccc3)CC2)CCC1=O (stereo unspecified)	-14	-2	i	-3	-2	-12	-10	nt
CC(=O)Oc1cc(O)c2c(c1)OC(c1ccc(OC(C)=O)c(OC(C)=O)c1)C(OC(C)=O)C2=O (stereo unspecified)	-8	-3	i	2	7	3	-1	-4
N=c1sccn1CC(=O)NC(c1ccccc1)c1ccccc1	0	81	i	9	11	1.1*	-6	22	eIF4H FP inh retest=87*;PABP FP inh retest=50
CC(C)CC(=O)NC(NC(=S)Nc1cccc2cccnc12)C(Cl)(Cl)Cl (stereo unspecified)	-21	1	i	-1	-5	-6	2	nt
C=CCNc1nc2cc(-c3ccccc3OC)sc2c(=O)n1C	-16	nt	nt	3	3	nt	nt	-94
C=CCNC(=O)c1onc(CSc2cc(C)ccc2C)c1C(=O)O	-10	1	i	2	5	-2	34	6
CC(=O)Nc1ccc(NC(=O)COC(=O)c2ccco2)cc1	nt	-12	i	-3	1	2	3	7
CCOc1ccccc1N(C(=O)CNC(=O)c1ccco1)C(C(=O)NC1CCCC1)c1cccnc1 (stereo unspecified)	8	3	i	-9	-8	-6	-3	77*
CCOc1cccc(N(C(=O)Cc2cccs2)C(C(=O)NC2CCCCC2)c2cccn2C)c1 (stereo unspecified)	6	-8	i	-28	-18	-2	1	89*
CCOC(=O)c1cc(/C(C)=N/OC(=O)c2ccc(Cl)cc2)on1	-10	-4	i	1	4	8	-3	-3
Cc1ccc(N(Cc2ccccc2O)C(=O)c2ccccc2F)cc1	9	2	i	-4	-1	-8	nt	11

Three compounds from above, ordered by formula weight, descending:
SMILES	UUG fidelity	PABP FP inh	Rce1 inh	MT1-MMP act inh	MT1-MMP act inh RFP	eIF4H FP inh	CSC inhib	Env fusion inh	others
CCOc1ccccc1N(C(=O)CNC(=O)c1ccco1)C(C(=O)NC1CCCC1)c1cccnc1 (stereo unspecified)	8	3	i	-9	-8	-6	-3	77*
CCOc1cccc(N(C(=O)Cc2cccs2)C(C(=O)NC2CCCCC2)c2cccn2C)c1 (stereo unspecified)	6	-8	i	-28	-18	-2	1	89*
CC(C)CC(=O)NC(NC(=S)Nc1cccc2cccnc12)C(Cl)(Cl)Cl (stereo unspecified)	-21	1	i	-1	-5	-6	2	nt

By substructure: the entries above with a Cl atom
SMILES	UUG fidelity	PABP FP inh	Rce1 inh	MT1-MMP act inh	MT1-MMP act inh RFP	eIF4H FP inh	CSC inhib	Env fusion inh	others
C=CCOn1c(=O)c(-c2ccc(Cl)cc2)[n+]([O-])c2ccccc21	-1	14	i	2	3	1	nt	2
COc1ccc(/C(O)=C2/C(=O)C(=O)N(CCN(C)C)C2c2ccc(C)cc2)cc1Cl (stereo unspecified)	-2	0	i	2	1	-5	-2	-8
N#CC1=C2SCN(Cc3ccco3)CN2C(=O)CC1c1c(F)cccc1Cl (stereo unspecified)	0	20	i	0	5	5	4	0
O=C(Nc1ccc(Cl)cn1)c1cc2c(s1)-c1ccccc1OC2	-10	-4	i	0	-7	-2	21	-31
COC(=O)c1sccc1NC(=O)Nc1ccccc1Cl	12	9	i	2	3	4	5	nt
Cc1c(NCc2cc(Cl)cc(Cl)c2O)c(=O)n(-c2ccccc2)n1C	-19	18	i	-16	-11	5	23	-21
CC(C)CC(=O)NC(NC(=S)Nc1cccc2cccnc12)C(Cl)(Cl)Cl (stereo unspecified)	-21	1	i	-1	-5	-6	2	nt
CCOC(=O)c1cc(/C(C)=N/OC(=O)c2ccc(Cl)cc2)on1	-10	-4	i	1	4	8	-3	-3

High-throughput results as filed in PubChem.
